PABP FP inh = PABP poly(A) RNA binding inhibitors, primary screen, biochemical, fluorescence polarization, uHTS; Polyadenylate-binding protein 1 (Homo sapiens), P11940; inhibition, % at 35 µM; AID 2014, 2009; actives 1% (n = 290,000);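 active means 50% or more with normal probe brightness, or confirmed in later tests; inconclusive means above 50% with abnormal brightness, or retests that disagree; inactive means below 50% or failed in later tests; about a fifth of its hits are not listed in these tables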;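 further: calls also rest on retests at 20 µM and on dose response follow-up; controls were probe without protein and protein plus probe with vehicle; some compounds called inactive have numbers as strong as hits; many hits fall short of the cut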
Yeast UUG start = modulators of yeast start codon fidelity, primary screen, whole organism, S. cerevisiae, single point, plate reader | S. cerevisiae UUG-firefly luciferase reporter, luminescence/redox ratio | activity score, % at 18.7 µM | actives 0.13% (n = 350,000);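 active means replicate mean at a twofold rise or more, about +100% in these data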;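 further: firefly luciferase made from a UUG start codon reports start codon fidelity; reporter light over untreated wells divided by growth signal over untreated wells; some hits fall short of that in this replicate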
HIV Env fusion = inhibitors of HIV-1 Env-driven cell-cell fusion, primary screen, HeLa-JRFL effector, CEM21 target cells, luciferase; inhibition, % at 12.3 µM; actives 1.1% (n = 360,000);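 active means mean replicate inhibition score of at least 50 and every replicate individually at or above 50; inconclusive means only one of the two criteria met; inactive means mean below 50 and not all replicates reaching 50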;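 further: 0% = plate neutral controls and 100% = maraviroc near 300 nM; one replicate is shown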
MT1-MMP act inh = blockers of MT1-MMP proenzyme processing, primary screen, HT1080 RFP-PRO-GFP cells, GFP/RFP fluorescence | Matrix metalloproteinase-14 (Homo sapiens), P50281 | AID 651647, 2012 | actives 0.061% (n = 360,000) | GFP/RFP ratio change, % at 20 µM | GFP/RFP ratio fluorescence, overnight; percent of plate control window, DMSO zero;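 active means GFP/RFP ratio change of at least 30% with cell ATP level not reduced by more than half and red fluorescence within 50% of control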; further: strong numbers were not always called active
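Test system: HT1080 cells expressing an RFP-PRO-GFP fluorescent reporter construct / Compound dosing: single-point 20 µM compound, 1% DMSO / Schedule: cells overnight before dosing, compound overnight, 37 °C, 5% CO2 / Evaluation: GFP/RFP fluorescence ratio / Control set: DMSO and RFP-L50D-GFP cell wells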
Rce1 inhib = yeast Rce1p protease inhibitors, primary screen, biochemical, fluorescence, cell-free homogeneous | calls only | AID 2563, 2010 | actives 0.27% (n = 290,000) | yeast membranes, quenched prenylated peptide cleavage fluorescence;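 active means fall in fluorescence gain of 50% or more versus controls, with final raw signal at or below 3038400; inconclusive means same 50% fall but final raw signal above 3038400; inactive means fall in fluorescence gain under 50%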;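 further: plate controls were neutral control wells for no effect and wells lacking membranes for full effect; tested at 10 µM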
Target sequence (Q03530 whole entry, looked up): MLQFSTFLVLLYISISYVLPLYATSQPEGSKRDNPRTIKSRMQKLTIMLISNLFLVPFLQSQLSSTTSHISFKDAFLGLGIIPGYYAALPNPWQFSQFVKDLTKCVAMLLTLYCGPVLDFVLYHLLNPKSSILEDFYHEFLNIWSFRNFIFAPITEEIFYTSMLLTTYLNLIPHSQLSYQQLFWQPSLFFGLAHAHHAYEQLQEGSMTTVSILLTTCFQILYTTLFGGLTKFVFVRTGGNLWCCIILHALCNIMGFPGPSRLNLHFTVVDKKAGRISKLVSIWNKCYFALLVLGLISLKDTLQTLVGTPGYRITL
eIF4H FP inh = human eIF4H binding inhibitors, primary screen, translation initiation inhibitor project, biochemical, uHTS, fluorescence polarization; Eukaryotic translation initiation factor 4H (Homo sapiens), Q15056; eIF4H fluorescence polarization binding assay; inhibition, % at 35 µM; actives 0.94% (n = 290,000);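 active means 50% or more with normal probe brightness, or confirmed in later tests; inconclusive means above 50% with abnormal brightness, or retests that disagree; inactive means below 50% or failed in later tests; about a fifth of its hits are not listed in these tables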;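 further: calls also rest on retests at 20 µM and on dose response follow-up; 0% = protein and probe with vehicle and 100% = probe without protein; strong numbers were not always called active; many hits fall short of the cut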
CSC inhib = cancer stem cell viability inhibitors, primary screen, luminescence. cancer stem cell-like cells viability. inhibition, % at 7.5 µM. actives 1.1% (n = 300,000);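 active means mean at 75% or more and at least half the replicates too; inconclusive means mean and replicates disagree; tested in HMLE shEcad cells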;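 further: 0% = median of negative and 100% = median of positive control wells; the first replicate is given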
eIF4H FP inh retest = recorded beside eIF4H FP inh, whose call it bears; inhibition, %; compound at 20 µM; confirmation average;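 mean of two retest wells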
PABP FP inh retest = further read-out of PABP FP inh, marked with its call; inhibition, %; compound at 20 µM; confirmation repeats;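 mean of two retest wells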
MT1-MMP act inh RFP = also measured in MT1-MMP act inh; calls as there; RFP signal change, %; measured here: RFP expression control read;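 0 = vehicle wells; hits needed this value within 50% of zero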
The depositor's hits bear a star; i = inactive; u = inconclusive; x = no result given; & = joins results of further samples. Only part of the results is shown, so the mix of outcomes need not match the whole.

SMILES	PABP FP inh	Yeast UUG start	HIV Env fusion	MT1-MMP act inh	MT1-MMP act inh RFP	Rce1 inhib	eIF4H FP inh	CSC inhib	others
CCOC(=O)C[C@H]1c2cc(F)ccc2S(=O)(=O)N1Cc1ccc(OC)cc1	x	-13	-12	0	-7	i	x	-13
CCOc1ccccc1OCCC(=O)NNC(=O)Cn1nc(C)cc1C	x	-15	-15	1	1	i	x	-5
COC(=O)c1ccc(NC(=O)CCc2nnc3ccc(NCc4ccco4)nn23)cc1	37	-8	-9	-2	-5	i	72	12	eIF4H FP inh retest=39;PABP FP inh retest=26
CCN(CC(=O)Nc1c(F)cccc1F)C(=O)c1ccc2ccccc2n1	x	x	x	12	-2	i	x	7
O=C(CCCOc1ccccc1)N1CCc2ccccc2C1	4	0	-105	0	1	i	1	3
COc1cccc(/C=C2\SC(=O)N(CC(=O)NC3C=CS(=O)(=O)C3)C2=O)c1 (stereo not given)	2	-11	-14	-6	-6	i	10	-6
O=C(COC(=O)/C=C/c1ccc(OC(F)F)cc1)NC1CCCCCC1	x	-2	-5	3	6	x	x	x
COc1ccc(C(=O)Nc2cc(OC)c(NC(=O)Nc3ccccc3)cc2OC)cc1	x	-6	15	9	0	x	x	x
CN1CCN(c2c(/C=N/O)c3ccccc3n2C)CC1	10	-12	10	-1	1	i	10	-5
COC(=O)NNC(=S)Nc1cc(OC)ccc1OC	-1	x	x	7	2	i	1	6
Cc1cc(C(=O)N2CCC(C(=O)O)CC2)c(C)o1	9	0	-6	2	3	i	-2	1
O=C(O)COc1ccccc1/C=N/NC(=O)c1cc(-c2ccc(F)cc2)nc2ccccc12	0	0	-10	7	-1	i	-1	8
O=C(Nc1cccc(/C=C/c2ccccn2)c1)c1ccc(-n2cncn2)cc1	x	-17	x	-1	2	x	x	2
Cn1c(=O)n(C)c2cc(/C=C(/C#N)C(=O)NCc3ccco3)ccc21	3	x	12	3	2	i	-6	x
Cc1cccc(CN2CCc3c([nH]c4ccccc34)C2CC(C)C)n1 (stereo not given)	2	-16	-2	-1	2	i	8	-1
COCCCNC(=S)N1CCN(C(=O)C(=O)Nc2ccc(C(=O)OC)cc2)CC1	-2	-10	11	-6	3	i	-4	-31
CCOC(=O)N1CCC(Nc2ccc3nnc(-c4ccccc4)n3n2)CC1	-4	-17	1	2	-3	i	-9	-11
CCc1cccc(C)c1NC(=O)CSc1nnc(CCCOc2ccc(Cl)cc2Cl)n1C	18	-23	14	-7	-16	i	-5	-12
Cc1cc(NS(=O)(=O)c2ccc(NC(=O)/C=C/c3ccc(C)o3)cc2)nc(C)n1	23	x	2	-8	6	i	42	-9
Cc1ccccc1C(=O)c1cccn1CC(=O)N1CCCCCC1	-12	x	x	2	2	i	-2	-1
O=C(NNc1nc2cc3c(cc2s1)OCO3)c1ccc(F)cc1	15	-5	-27	2	7	i	4	0
FC(F)(F)c1cc(Cl)c2nc(-c3ccccc3)c(Cc3ccccc3)n2c1	x	-7	3	0	2	x	x	x
Cc1cccc(NC(=O)Cc2noc3ccccc23)c1C	4	-11	x	6	5	i	-5	-3
CN1CCN(C(=O)C2=C[C@@H](c3ccc(C(F)(F)F)cc3)C[C@@H](OCCCCO)O2)CC1	-3	-14	-15	2	3	i	-5	-1
CCN(Cc1ccccc1)S(=O)(=O)c1ccc(C(=O)N(CCCN(C)C)c2nc3ccc(F)cc3s2)cc1	5	9	-1	3	3	i	-4	-12
COc1ccc(OC)c(CNC(=O)Cc2c(C(=O)O)[nH]c3ccc(Cl)cc23)c1	1	x	8	2	-4	i	-4	12
O=C(NC(=S)Nc1ccc(N2CCOCC2)cc1)c1cccc([N+](=O)[O-])c1	-9	5	-4	3	-1	i	13	5
O=C(CN1CCN(c2ccc(F)cc2)CC1)Nc1ccccc1C(=O)NCCc1ccccc1	x	-26	13	2	-2	x	x	x
CN1CCC(=C2c3ccccc3C=Cc3ccccc32)CC1	-1	2	x	-13	-9	i	-11	-9
Cc1c(NC(=O)C(C)OC(=O)c2ccc(NC(=O)CC#N)cc2)c(=O)n(-c2ccccc2)n1C (stereo not given)	x	x	-14	-2	2	i	x	-15
CCOC(=O)c1cn(-c2ccccc2)nc1-c1ccncc1	-2	-15	11	-6	-1	i	-7	4
CN(CC(=O)Nn1cnnc1)S(=O)(=O)c1ccccc1	6	x	x	0	4	i	1	-4
COc1ccc(C(=O)NCc2nnc(SCC(=O)c3ccc(F)cc3)n2C)cc1OC	x	-16	-2	1	0	i	x	-14
COc1cc(C(=O)OCC(=O)NCc2ccc(F)cc2)cc(NC(=O)c2cccs2)c1OC	-3	2	-1	-1	-4	i	-6	24
O=C(Cn1cccc1C(=O)c1ccccc1)NCCCN1CCOCC1	8	-14	x	1	0	i	-3	16
CCn1c(SCC(=O)Nc2nc(C)c(C)s2)nnc1-c1cccs1	-8	-20	36	-1	3	i	10	-1

3 structures out of the list, sorted by count of non-hydrogen atoms, descending:
SMILES	PABP FP inh	Yeast UUG start	HIV Env fusion	MT1-MMP act inh	MT1-MMP act inh RFP	Rce1 inhib	eIF4H FP inh	CSC inhib	others
COc1ccc(C(=O)NCc2nnc(SCC(=O)c3ccc(F)cc3)n2C)cc1OC	x	-16	-2	1	0	i	x	-14
Cc1cccc(NC(=O)Cc2noc3ccccc23)c1C	4	-11	x	6	5	i	-5	-3
Cc1cc(C(=O)N2CCC(C(=O)O)CC2)c(C)o1	9	0	-6	2	3	i	-2	1

The results go on.
SMILES	PABP FP inh	Yeast UUG start	HIV Env fusion	MT1-MMP act inh	MT1-MMP act inh RFP	Rce1 inhib	eIF4H FP inh	CSC inhib	others
CSCC[C@H](N)C(=O)N1CCC(C(=O)N[C@H](C)C(=O)NC(C)c2ccccc2)CC1 (stereo not given in full)	-3	-22	x	-4	2	i	-11	0
Cc1ccc(Cl)cc1NC(=O)COC(=O)C1CCCC1	-7	-17	x	0	1	i	1	-10
Cc1cccc(NC(=O)CNC(=O)CN2C(=O)NC(C)(CCC(C)C)C2=O)c1C (stereo not given)	x	-9	16	1	-3	x	x	x
COc1cc(C#Cc2c(-c3cncn3C)n(C)c3ccc(-c4cnc(N5CCOCC5)nc4)cc23)cc(OC)c1	x	-12	27	-11	-9	x	x	x
C=C(C)CN1C(=O)c2ccccc2C1=O	2.9*	-24	x	4	0	i	57	-10	eIF4H FP inh retest=32;PABP FP inh retest=72*
O=C(CSc1nnc(-c2ccco2)n1CC1CCCO1)c1ccc(F)cc1 (stereo not given)	-1	-24	x	-3	1	x	-4	-4
Cc1cc(C)cc(NC(=O)CS(=O)(=O)c2cccc3nsnc23)c1	-4	-5	6	0	2	i	-7	-1
COc1ccc(C(C(=O)NC2CCCC2)N(C(=O)c2ccco2)c2ccc3c(c2)OCO3)cc1OC (stereo not given)	7	0	x	2	-1	i	1	-5
O=C(/C=C/c1cc2c(cc1Br)OCO2)NCc1ccc(Cl)cc1	7	-4	x	0	2	i	-5	6
CN(Cc1ccccc1F)c1ccc(S(=O)(=O)N2CCCC2)cn1	-25	x	18	1	0	i	-13	-9
Cc1ccc(SCC(=O)OCC(=O)NCCCc2ccccc2)cc1	x	x	6	0	1	i	x	-5
COc1ccc(NC(=O)CSc2nnc(-c3cccnc3)n2Cc2ccco2)c(OC)c1	-6	-13	x	2	1	i	-11	x
COC1=CC(=O)OC12CCCCC2	-4	-13	33	5	3	i	0	-8
Cc1cc(C)c(NC(=O)NC(=O)c2cccc(F)c2)c(C)n1	9	-5	-15	2	1	i	-3	-17
Cc1cc(C)c2oc(C(=O)NCc3ccccc3)cc(=O)c2c1	0	-16	-7	-3	-2	i	2	-3
Cc1nc(Cl)sc1C(=O)Nc1ccc(C(C)(C)C)cc1	-8	-5	-8	5	-1	i	-6	-1
CCN(CC)S(=O)(=O)c1cccc(C(=O)NCCCn2ccnc2)c1	5	x	4	-3	-2	i	-6	3
CCOC(=O)Nc1ccc2c(CN3C(=O)NC4(CCCC4)C3=O)cc(=O)oc2c1	7	-11	x	4	2	x	-1	x
COc1ccccc1Nc1nc(N2CCOCC2)nc(N2CCOCC2)n1	8	-14&-11	20&30	-7&-7	0&-1	i	-20	-6&-6
O=Cc1cn(-c2ccccc2)nc1-c1cc2cc(O)ccc2oc1=O	0	-23	16	-15	-2	i	24	0
Cc1csc2ncc(C(=O)Nc3ccon3)c(=O)n12	2	x	x	-4	4	i	-2	9
COCCN(C(=O)COC(=O)Cc1c[nH]c2ccccc12)c1c(N)n(Cc2ccccc2)c(=O)[nH]c1=O	x	16	10	-1	1	i	x	-11
Cc1cnn(-c2nc(-c3ccccc3)cc(-c3ccccc3)n2)c1	-3	x	-13	-5	-5	i	-13	x
COC(=O)C1=C(C(=O)OC)[C@@H]2N(Cc3ccccc3)c3ccccc3[C@@]23C[C@@H](C(=O)OC)N(C(=O)NC(C)(C)C)C3=N1	x	-14	u	-3	-2	i	x	-5
O=C(CS(=O)(=O)Cc1ccccc1)NCCc1ccc(F)cc1	9	-2	-19	1	1	i	-7	-14
COc1ccc(C(=O)NCC(=O)O)cc1	1	-15	-56	3	4	i	1	-15
O=C(c1cccc2cccc(O)c12)N1CCCCC1	32	1	x	1	3	i	16	-2
Cc1ccc(S(=O)(=O)Nc2ccc3c(c2)nc(CCN2CCCC2)n3C)cc1	-20	-19	-5	-4	-5	i	-10	40
CNc1oc(-c2ccc(Cl)cc2)nc1P(=O)(c1ccccc1)c1ccccc1	1	0	8	-8	-7	i	-14	120*
COc1ccc(C2N=C(c3ccccc3)C(C)(C)N2O)cc1OC (stereo not given)	-4	-4	-36	-2	-3	i	4	-8
CC1(C)CC(=O)C=C(NCCN2CCNCC2)C1	-1	x	-43	x	x	i	-6	-4
COc1cc(C(=S)N2CCCCC2)ccc1O	4	x	x	-2	-2	x	-6	x
Nc1nc2nc(-c3ccc(OCc4ccccc4)cc3)cc(C(F)(F)F)n2n1	11	-8	-43	-5	-1	i	-2	-3
CCC1Oc2ccc(C)cc2N(CC(=O)N(Cc2cccnc2)Cc2ccc(C)o2)C1=O (stereo not given)	4	-14	4	0	-4	i	4	-11
CCNC(=O)CC1C(=O)N(c2ccc(C)cc2)C(=O)N1CCOC (stereo not given)	2	x	7	5	5	i	4	-14
COc1ccc(NC2=NC(=S)N(c3ccccc3C)C23CCCCC3)cc1	3	-26	-75	3	0	i	-5	-20
Cc1ccc(S(=O)(=O)NNC(=O)c2cnn(-c3ccccc3)c2-n2cccc2)cc1	5	5	-10	0	0	i	2	7
Oc1[nH]c2ccccc2c1N=Nc1ccccc1	u	-15	-11	-1	2	i	u	-8
COc1ccc(C(C(N)=O)c2ncc(C(F)(F)F)cc2Cl)cc1 (stereo not given)	-12	x	-6	3	2	x	-2	-4
Cc1ccc2nc(SCC(=O)NCc3ccc4c(c3)OCO4)nc(=O)n2c1	x	-4	-4	-1	1	i	x	-4
CCc1ccccc1NC(=O)CSc1ncn[nH]1	-1	-10	1	2	1	i	-10	-3

High-throughput results (PubChem BioAssay)
